Screening data: PubChem, National Center for Advancing Translational Sciences (NCATS)
GLA inh pH 4.5 – inhibitors of human alpha-galactosidase A at pH 4.5. P06280. purified enzyme, 4-MU-alpha-Gal fluorescence, pH 4.5. activity change, negative = inhibition, % at 105 µM. 230,000 tested, under 10 active. AID 1467; inconclusive = small, poorly fitted or top-dose-only inhibition, or a rising curve; inactive = flat fitted curve, though single readings scatter; no compound was filed as active;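 also: 0% = full activity with enzyme and -100% = basal without enzyme; dose as in the result columns while the protocol names 77 µM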
Target sequence (P06280 whole entry, looked up): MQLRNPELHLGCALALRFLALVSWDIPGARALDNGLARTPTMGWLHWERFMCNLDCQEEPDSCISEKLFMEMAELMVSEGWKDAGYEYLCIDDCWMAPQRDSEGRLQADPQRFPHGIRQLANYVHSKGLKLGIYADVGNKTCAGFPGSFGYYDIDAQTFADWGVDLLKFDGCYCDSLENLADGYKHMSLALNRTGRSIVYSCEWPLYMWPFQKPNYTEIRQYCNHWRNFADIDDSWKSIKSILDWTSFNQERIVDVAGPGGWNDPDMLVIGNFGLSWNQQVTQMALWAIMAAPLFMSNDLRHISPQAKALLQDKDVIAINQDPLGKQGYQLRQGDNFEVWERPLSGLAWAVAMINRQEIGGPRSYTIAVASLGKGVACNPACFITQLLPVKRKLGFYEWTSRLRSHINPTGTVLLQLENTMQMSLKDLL
Rango complex inh – prevents formation of the Rango-importin beta complex | actives 0.031% (n = 340,000) | Rango CFP/YFP FRET sensor + importin beta, 45 min | Potency, µM (titrated, usually from 92.2 µM), for the others: at the highest dose inhibition of complex formation; active = rising FRET ratio curve, often small or poorly fitted; inconclusive = mostly compound fluorescence or quenching in the first reads; inactive = flat curves in all reads;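 also: potency is read from the fitted curve at half-maximal effect; 0% = DMSO wells and 100% = buffer wells lacking importin beta; nearly all actives have a fitted effect of over 15% in size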
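FRET biosensor (snurportin 1 IBB flanked by EYFP and cerulean), 50 nM, with compound 5 min, then 0.125 microM importin beta in PBS, 1 mM DTT, 0.02% Tween-20, 0.1% BSA. CFP/YFP ratio read after 45 min at room temperature; pre-read flags interference.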
Rango dissoc inh – inhibition of RanGTP-driven Rango-importin beta dissociation; actives 0.071% (n = 340,000); Biochemical FRET Rango-importin beta, RanGTP-induced dissociation; Potency, µM (titrated, usually from 46.1 µM), without a hit: at the top dose activity change, negative = inhibition; AID 540253; O95149+P62826; active means falling FRET ratio curve, often poorly fitted, with flat reads before Ran was added; inconclusive means other falling curves, or compound fluorescence or quenching; inactive means flat or rising ratio curve;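 also: potency is read from the fitted curve at half-maximal effect; % of control where 0% means no effect; nearly all actives have a fitted effect of over 45% in size; -100% = wells without RanGTP and RCC1; the record marks most hits as doubtful in a second field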
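Quantitative HTS using a FRET biosensor: 0.1 uM Rango, 0.25 uM importin beta, 0.6 uM Ran, 2 mM GTP, 0.2 uM RCC1 final, PBS with DTT, Tween-20 and BSA. Post-read taken 45 min after Ran addition.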
miR-21 reporter – raises the signal of a miR-21 reporter; HeLa miR-21 FLuc reporter, luciferase, 48 h; Potency, µM (doses to about 38.3 µM), for the others: at the highest dose reporter change, positive = more light; 340,000 tested, under 10 active; active = well fitted rising curve with a large enough effect; inconclusive = small, poorly fitted or top-dose-only effect; inactive = no such curve, though single readings can be large or run the other way;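 also: % of control where 0% means no effect; miR-21 action dims this reporter so a rising signal means less miR-21 action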
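HeLa cells endogenously expressing miR-21, stably carrying CMV-driven firefly luciferase with a downstream miR-21 binding site, 2000 cells/well. Titrations up to approximately 40 uM, 48 hours; luciferase luminescence read.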
An asterisk follows results filed as active; ? = inconclusive; nt = no result given; & = joins results of further samples.

Each structure is followed by: GLA inh pH 4.5, Rango dissoc inh, miR-21 reporter, Rango complex inh
> N#Cc1c2ccc(OCC(=O)NCc3ccco3)cc2n2ccccc12
    nt, ?, 1.7%, ?
> COc1ccc(-c2coc3cc(O)cc(O)c3c2=O)cc1
    2.9&-5.5&1.2, 0.2%, -47.2%, -0.8%
> NC(Cc1ccc(OC(F)F)cc1)C(=O)O (stereo not given)
    2.2, 5.4%, -6.8%, -1.8%
> CCOC(=O)c1cc2c(ccn2C)n1CC(=O)N1CCC(C)CC1
    10.4, ?, -2.2%, 3.6%
> CCCCc1ccc(NC(=O)C2CCCC2)cc1
    nt, 5.8%, nt, -0.3%
> CCc1cc2ccc(C)cc2nc1SCC(=O)N1CCN(C(=O)c2ccco2)CC1
    -4.4, 7.7%, -0.5%, 1.2%
> CCCCN1Cc2cc(C(=O)c3cc(F)ccc3O)cnc2NC1=O
    0.3, 0.4%, ?, -1.2%
> CCCCN1C2CCCC1CC(NC(=O)c1ccc(OC)c(OC)c1)C2 (stereo not given)
    -4.7, 6.8%, -1.9%, 4.2%
> Cc1ccccc1NC(=O)c1cc(S(=O)(=O)Nc2cccc(C(=O)O)c2)ccc1Cl
    nt, 1.3%, -2.0%, 3.9%
> CCNC(=S)NCCN1CCOCC1
    -3.5, -6.3%, -5.6%, 0.2%

Some of these compounds in order of SMILES length, high to low.
Each structure is followed by: GLA inh pH 4.5, Rango dissoc inh, miR-21 reporter, Rango complex inh
> CCc1cc2ccc(C)cc2nc1SCC(=O)N1CCN(C(=O)c2ccco2)CC1
    -4.4, 7.7%, -0.5%, 1.2%
> COc1ccc(-c2coc3cc(O)cc(O)c3c2=O)cc1
    2.9&-5.5&1.2, 0.2%, -47.2%, -0.8%
> CCCCc1ccc(NC(=O)C2CCCC2)cc1
    nt, 5.8%, nt, -0.3%

(continued)
Each structure is followed by: GLA inh pH 4.5, Rango dissoc inh, miR-21 reporter, Rango complex inh
> Cc1ccc(S(=O)(=O)NCCc2nc3ccccc3[nH]2)cc1
    nt, 2.1%, -0.2%, -2.5%
> CC(C)(C)c1ccc(SCC(N)=O)cc1
    -2.8, -4.4%, -22.7%, -0.4%
> OCCN1CCN(Cc2nc(-c3cccc(Cl)c3)no2)CC1
    -3.8, -22.4%, -11.4%, 2.8%
> CC(C)CC(NC(=O)c1ccc(Cl)cc1)C(=O)O (stereo not given)
    0.7, 0.7%, 0.6%, 0.4%
> CCOC(=O)c1cnn(-c2ccccc2)c1NC(=O)CSc1nnc(-c2cccs2)n1CC
    2.0, 7.3%, -3.1%, -2.2%
> CCOC(=O)CSc1nnc(CNc2ccc(Cl)cc2)n1-c1ccccc1
    -14.5, -8.9%, 1.2%, 2.9%
> CC1CCN(CCCNC(=O)Cn2ncc3c([nH]c4ccccc43)c2=O)CC1
    nt, -3.2%, 2.3%, 0.9%
> Cc1cccc(NC(=O)c2ccc(S(=O)(=O)NCc3cccnc3)cc2)c1
    nt, -4.1%, 10.5%, -0.3%
> Cn1ncc(Br)c1C(=O)NC1CCCCC1
    nt, -12.4%, 3.5%, -0.4%
> O=C(CCNC(=O)c1ccc([N+](=O)[O-])cc1)Nc1nc2ccccc2[nH]1
    nt, -8.9%, nt, 1.5%
> Cc1ccc(CN(CC(=O)NCCc2ccccc2)C(=O)CCCC(=O)Nc2cc(C)on2)cc1
    1.6, 0.3%, 0.2%, -0.6%
> O=C(CCSCc1cccc(Cl)c1)NCCc1ccc(Cl)cc1
    -6.7, -6.6%, -2.1%&0.9%, 0.5%
> Cc1cccc(-c2n[nH]c([N+](=O)[O-])n2)c1
    -1.6, -5.4%, -10.6%, 0.2%
> CC(C)C[C@H](CO)Nc1nc(N(C)c2cccc(Cl)c2)c2ncn(C(C)C)c2n1
    -6.8, -3.8%, 12.3%, -2.1%
> Cc1ccc(Cl)cc1N1CCN(S(=O)(=O)c2ccc3[nH]c(=O)c(=O)[nH]c3c2)CC1
    2.7, -16.0%, -0.9%, -1.1%
> CNC1(C(N)=O)CCN(Cc2ccccc2)CC1
    nt, -18.8%, nt, 8.8%
> COc1ccccc1CCC(=O)N1CCC(n2nccc2NC(=O)C2CCOC2)CC1 (stereo not given)
    nt, 10.4%, -0.4%, 0.2%
> CC(=O)N(C(C)=O)N1C(=O)/C(=C/c2ccc(Cl)cc2)SC1=S
    -4.7, 7.3%, 12.7%, 4.3%
> CC1(NC(=O)NCCCCCCNC(=O)NC2(C)CCS(=O)(=O)C2)CCS(=O)(=O)C1 (stereo not given)
    nt, -11.3%, -0.4%, -1.0%
> CCC(=O)N1N=C(c2ccc(NS(=O)(=O)c3ccccc3)cc2)CC1c1ccco1 (stereo not given)
    nt, ?, nt, -2.1%
> COc1ccc(CNC(=O)CN2CCC(n3nnc4cc(F)ccc43)CC2)cc1
    7.3, -4.7%, -5.4%, -2.2%
> Cc1ccc(S(=O)(=O)NCC(C)NS(=O)(=O)c2ccccc2[N+](=O)[O-])cc1 (stereo not given)
    nt, 16.1%, 10.2%, -1.7%
> CCc1ccc(OCC(=O)N/N=C(\C)c2ccc3c(c2)OCCO3)cc1
    -22.9, -18.0%, -21.8%, 5.2%
> COc1ccc(C2NC(=O)CS2)cc1OC (stereo not given)
    -1.9, -3.1%, -0.8%, -0.7%
> CCc1nc(N)c(C#N)c(-c2ccccc2OC)c1C
    -7.2, 1.3%, 0.7%, 1.3%
> CN(CC(=O)Nc1ccccc1Br)CC(=O)Nc1ccccc1C(F)(F)F
    nt, -1.1%, -3.5%, -8.4%
> CCOc1ncccc1C(=O)Nc1nc(SC)ns1
    -2.9, 2.5%, -43.4%, 1.2%
> CCOc1ccccc1NC(=O)Cc1coc2cc(C)ccc12
    -5.9, -7.2%, -12.0%, -0.2%
> COc1ccc(-c2nc(S(=O)(=O)c3ccc(C)cc3)c(N3CCCC3)o2)cc1
    8.1, -2.1%, -6.2%, -0.5%
> OC(CN1CCCCC1)c1ccc(Br)cc1 (stereo not given)
    nt, 0.7%, nt, 2.2%
> COc1cc(C2NC(=S)NC(C)=C2C(=O)Nc2cc(C)cc(C)c2)ccc1O (stereo not given)
    3.1, -8.6%, -1.5%, -1.9%
> Cn1c(SCc2ccccc2)nnc1-c1ccncc1
    5.6, -8.3%, -10.6%, ?
> CCn1c(SCC(=O)c2ccccc2)nnc1-c1cccs1
    -8.3, -8.9%, -53.0%, 0.0%
> Cc1ccc(N2CC(C(=O)Oc3cccc(N4C(=O)CCC4=O)c3)CC2=O)cc1 (stereo not given)
    1.8, 11.4%, -1.3%, 1.1%
> O=C(Nc1ccc(S(=O)(=O)Nc2ccc(Cl)cc2)cc1)C1CCCO1 (stereo not given)
    3.2, -8.4%, 7.3%, 0.1%
> Cc1ccc(N=c2oc3cc(O)ccc3cc2C(N)=O)cc1
    2.1, ?, 24.4%, ?
> CCOC(=O)c1ccccc1NC(=O)CSc1nnc(C)c(=O)[nH]1
    nt, 3.5%, 0.7%, 0.6%
> COc1ccc(CCNC(=O)CN(c2cc(C)cc(C)c2)S(=O)(=O)c2c(C)noc2C)cc1OC
    nt, -13.4%, 0.9%, 0.4%
> Nc1nc(Nc2ccc(Cl)cc2)c(NC=O)c(=O)[nH]1
    nt, -7.3%, nt, 0.6%
> O=C(CCNS(=O)(=O)c1cccc2nsnc12)Nc1ccc2c(c1)OCCO2
    5.3, -11.6%, -11.8%, -2.3%
> CSc1nc(C)cc(OCCNS(=O)(=O)c2cc(C)ccc2C)n1
    -0.2, 26.5%, -6.5%, -3.1%
> Cn1c(=O)[nH]c(=O)c2c1nc(NCc1ccccc1)n2CC(O)c1ccccc1 (stereo not given)
    4.4, -6.2%, -5.4%, -0.5%
> C=C(C)C(=O)Nc1cccc(C2=NOC3(C2)C[C@H](C(N)=O)N(C(=O)CC)C3)c1 (stereo not given in full)
    3.7, 17.0%, 4.8%, -5.9%
> O=C(CCC1CCCN(C(=O)c2ccc3c(c2)OCCO3)C1)NCc1ccccc1F (stereo not given)
    0.0, 30.6%, -43.2%, -1.0%
> Cc1c(Cl)c([N+](=O)[O-])nn1Cc1ccc(C(=O)N/N=C\c2cccc(Br)c2)o1
    -9.0, -1.1%, -5.6%, 2.3%
> COc1ccc(CCC(=O)Nc2nnc(C(C)(C)C)s2)cc1
    nt, 1.9%, -3.5%, 5.2%
> CC(=O)Nc1sc(C)c(C)c1C(=O)OCC(=O)NCc1ccc(F)cc1
    nt, 10.6%, nt, -5.2%
> Nc1cc(=O)[nH]c(SCC(=O)c2ccc(O)cc2O)n1
    nt, -25.4%, -3.6%, 1.3%
> CCc1ccccc1NC(=O)N1CCC(NC(=O)C(Cc2ccccc2)NC(C)=O)CC1 (stereo not given)
    8.0, -7.4%, 0.5%, 4.4%
> Cc1cccc(N2CCN(C(=O)CN3C(=O)NC(C)(C)C3=O)CC2)c1C
    -3.1, 4.5%, -30.8%, -2.2%

The list continues.
Each structure is followed by: GLA inh pH 4.5, Rango dissoc inh, miR-21 reporter, Rango complex inh
> O=C(CNC(=O)c1ccccc1)OCC(=O)N1c2ccccc2Sc2ccccc21
    -9.1, 0.6%, -2.2%, -2.9%
> Cc1n[nH]c(C)c1CCCOc1ccccc1
    -6.8, 10.5%, -3.9%, -0.3%
> CCCn1c(NC(=O)C2CCN(C(=O)c3ccccc3C)CC2)nc2ccccc21
    nt, 10.0%, nt, -0.4%
> COc1ccc(C2(CNC(=O)c3cccc([N+](=O)[O-])c3)CCOCC2)cc1OC
    -17.3, -5.9%, -10.4%, 3.5%
> COc1ccccc1NC(=O)Nc1ccccc1C(=O)NCCCN1CCOCC1
    -3.4, 4.0%, -2.5%, 0.9%
> CC1CCc2cc(F)cc3c(O)c(C(=O)NCc4ccco4)c(=O)n1c23 (stereo not given)
    0.4, -15.0%, 2.3%, -1.4%
> Fc1ccc(NC(=S)N/N=C/c2ccc(F)c(F)c2)cc1
    2.4, -1.7%, -24.9%, 0.6%
> Cc1ccc(-c2nnn(CC(=O)N(Cc3cccs3)C(C(=O)NC3CCCC3)c3ccncc3)n2)cc1 (stereo not given)
    -8.3, -25.5%, -30.5%, ?
> Cc1cccc(NC(=O)c2sc(Cl)nc2-c2ccccc2)c1
    3.9, 3.2%, -0.8%, 1.3%
> CCOc1ccc(OCC)c(NC(=O)CSc2nnc(-c3cccnc3)o2)c1
    -2.8, 5.4%, -3.9%, -1.0%
> Cc1ccc(C(=O)N2CC3(C)CN(C(=O)c4ccc(C)cc4)CC(C)(C2)C3=O)cc1
    5.7, -4.9%, -2.5%, 1.0%
> O=C(CCN1C(=O)/C(=C\c2ccccc2)SC1=S)N1CCOCC1
    nt, -1.0%, -2.3%, -0.3%
> COc1cccc(CN2CCC(n3nccc3NC(=O)CCOc3ccccc3)CC2)c1O
    nt, 10.7%, nt, -3.8%
> O=NC1=C(c2c(O)[nH]c3ccccc23)CCCC1
    3.5, 1.1%, 1.0%, -1.5%
> Cc1ccc(CN(C(=O)Cc2cccs2)C(C(=O)NC2CCCC2)c2ccncc2)cc1 (stereo not given)
    -4.5, 6.3%, -9.9%, -3.8%
> Cc1cc(/C=C(/C#N)c2cccc(Cl)c2)c(C)n1C
    -20.7, 0.0%, -22.0%, -0.5%
> Cc1ccc(NC(=O)Cn2c(=O)c3cccn3c3ccccc32)c(Cl)c1
    nt, 1.1%, -8.3%, -3.0%
> O=C(NCC1CCCO1)c1cc([N+](=O)[O-])ccc1N1CCC(Cc2ccccc2)CC1 (stereo not given)
    nt, -9.0%, nt, ?
> CCc1ccc(OCC(=O)OCC(=O)c2ccc3c(c2)NC(=O)CO3)cc1
    0.6, -8.8%, 2.6%, 1.2%
> Cc1cc(C(=O)CN2C(=O)NC(CCS(C)(=O)=O)C2=O)c(C)n1C1CC1 (stereo not given)
    nt, -8.6%, nt, -0.5%
> COc1ccc(C(=O)C2CCN(CC(=O)Nc3ccc(C)cc3)CC2)cc1
    nt, 7.6%, -0.1%, 3.8%
> O=C(c1ccccc1NS(=O)(=O)c1ccc(F)cc1)N1CCc2ccccc21
    8.5, -5.8%, -1.9%, 1.0%
> O=C(Nc1ccc(OC(F)F)cc1)c1ccccn1
    -2.3, 2.3%, -15.8%, 0.2%
> COc1cccc(C2CC(c3cccs3)=NN2C(=O)CSC2=NCCS2)c1OC (stereo not given)
    nt, -2.9%, -1.8%, -0.6%

These rows are one share of the data (hit frequency here may not be typical).
